# Assay outcomes from PubChem.
# Bfl-1 A1 inh – inhibitors of the anti-apoptotic protein A1, read as caspase activation | hit rate 0.066% among 330,000 | caspase activation, % (test concentration not listed) | AID 2462 | MEF A1-2A-BIM cells, Caspase-Glo 3/7 luminescence, 3 h; percent of clofoctol response, vehicle zero;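 active = over half of replicate activation scores above 10%, or exactly half above 10 with the replicate mean above 10; inconclusive = replicate mean below 10 yet half the replicates above 10; inactive = over half of replicates below 10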;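 note: wells of about 30 µL received 50 nL stock; many hits fall short of the cut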
# ALR inh – inhibitors of human sulfhydryl oxidase ALR. AID 485317. inhibition, % (test concentration not listed). purified ALR, DTT oxidation, H2O2 HRP-luminol luminescence. hit rate 3.8% among 290,000. P55789;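 active = mean and each replicate at 75% or more; inconclusive = only one of the two met; inactive = neither met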;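 note: stock transfer was 7.5 nL into about 7.5 µL; 0% = neutral wells and 100% = wells with inactivated enzyme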
# Calb FLC – C. albicans growth modulation with fluconazole | C. albicans CaCi-2 (fluconazole-resistant clinical isolate) + fluconazole, Alamar Blue growth, 48 h | growth inhibition, % (test concentration not listed) | hit rate 0.57% among 300,000 | AID 1979;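 active = most replicates above 75%; inconclusive = exactly half above 75%; inactive = most below 75%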;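 note: all wells also contain fluconazole at 8 µg/ml as a sub-toxic cotreatment; 0% = median of DMSO wells and 100% = median of geldanamycin control wells; wells of about 8 µL received 7.5 nL stock; the first replicate is given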
# Ecoli rRNA inh – inhibits bacterial ribosomal RNA function over humanized ribosomes | hit rate 1.6% among 350,000 | GFP signal change (wild-type ribosome), % (no concentration beside the values) | E. coli WT GFP vs humanized-ribosome RFP mutants, fluorescence, 24 h; hits give low values; DMSO median 0, no signal -100;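 active = significant combined selectivity score with lowered wild-type GFP, culture density cut under 30%, mutant RFP and density less affected; inactive = any of these conditions unmet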; note: one replicate is shown; some compounds called inactive have numbers as strong as hits
# Beta cell apopt – blocks beta cell apoptosis. protection from apoptosis, % (concentration not given with the values). INS-1E cytokine-induced death, ATP luminescence, 48 h; percent of positive-control rescue, neutral wells zero. hit rate 0.8% among 300,000;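 active = all replicates at 75% or more, or half of them and the mean; inconclusive = half reach 75% but not the mean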;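 note: 0% = cytokine-treated negative control wells and 100% = positive control rescue; higher means more ATP so stronger rescue from cytokine killing; wells of about 40 µL received 100 nL stock; the first replicate is given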
# T cruzi inh – T. cruzi replication inhibition; T. cruzi beta-gal in NIH3T3, luminescence, 90 h; hit rate 1.4% among 300,000; inhibition, % (concentration not given with the values);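 active = mean inhibition across valid replicates above about 55%, limit read from the data; inconclusive = mean below that limit but half or more replicates reach it; inactive = mean below it, under half of replicates reach it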;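 note: signal also drops with host cell toxicity which is not excluded here; 0% = plate median of DMSO wells and 100% = zero luminescence signal; higher percent means less beta-gal luminescence so fewer parasites; stock transfer was 50 nL into about 50 µL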
# B2AR ag – activates human beta-2 adrenergic receptor causing internalization. P07550. response, % (concentration not given with the values). Am2.2-beta2AR cells, FAP receptor internalization, flow cytometry; reference of the scale not given here. AID 504454. hit rate 0.43% among 340,000;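 active = response above a set limit, near 3 SD of response in nonfluorescent compounds, cut at about 42% in these data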;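 note: stock transfer was 100 nL into about 11 µL; a reference agonist was the positive control; negative values mostly stem from fluorescent compounds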
# LANA-H2B inh – blocks KSHV LANA binding to histone H2A/H2B; Q9QR71; cell-free LANA-H2A/H2B peptide, fluorescence polarization; inhibition, % (no concentration beside the values); hit rate 0.6% among 320,000; in the data active = inhibition mostly above about 10%, no sharp cut-off; inactive = mostly below about 6.7%;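 note: stock transfer was 7.5 nL into about 10 µL; 0% = median of vehicle wells and 100% = median of positive control wells; one replicate is shown; the record names a cut of 25% in any replicate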
# Target sequence (Q9QR71 whole entry, looked up): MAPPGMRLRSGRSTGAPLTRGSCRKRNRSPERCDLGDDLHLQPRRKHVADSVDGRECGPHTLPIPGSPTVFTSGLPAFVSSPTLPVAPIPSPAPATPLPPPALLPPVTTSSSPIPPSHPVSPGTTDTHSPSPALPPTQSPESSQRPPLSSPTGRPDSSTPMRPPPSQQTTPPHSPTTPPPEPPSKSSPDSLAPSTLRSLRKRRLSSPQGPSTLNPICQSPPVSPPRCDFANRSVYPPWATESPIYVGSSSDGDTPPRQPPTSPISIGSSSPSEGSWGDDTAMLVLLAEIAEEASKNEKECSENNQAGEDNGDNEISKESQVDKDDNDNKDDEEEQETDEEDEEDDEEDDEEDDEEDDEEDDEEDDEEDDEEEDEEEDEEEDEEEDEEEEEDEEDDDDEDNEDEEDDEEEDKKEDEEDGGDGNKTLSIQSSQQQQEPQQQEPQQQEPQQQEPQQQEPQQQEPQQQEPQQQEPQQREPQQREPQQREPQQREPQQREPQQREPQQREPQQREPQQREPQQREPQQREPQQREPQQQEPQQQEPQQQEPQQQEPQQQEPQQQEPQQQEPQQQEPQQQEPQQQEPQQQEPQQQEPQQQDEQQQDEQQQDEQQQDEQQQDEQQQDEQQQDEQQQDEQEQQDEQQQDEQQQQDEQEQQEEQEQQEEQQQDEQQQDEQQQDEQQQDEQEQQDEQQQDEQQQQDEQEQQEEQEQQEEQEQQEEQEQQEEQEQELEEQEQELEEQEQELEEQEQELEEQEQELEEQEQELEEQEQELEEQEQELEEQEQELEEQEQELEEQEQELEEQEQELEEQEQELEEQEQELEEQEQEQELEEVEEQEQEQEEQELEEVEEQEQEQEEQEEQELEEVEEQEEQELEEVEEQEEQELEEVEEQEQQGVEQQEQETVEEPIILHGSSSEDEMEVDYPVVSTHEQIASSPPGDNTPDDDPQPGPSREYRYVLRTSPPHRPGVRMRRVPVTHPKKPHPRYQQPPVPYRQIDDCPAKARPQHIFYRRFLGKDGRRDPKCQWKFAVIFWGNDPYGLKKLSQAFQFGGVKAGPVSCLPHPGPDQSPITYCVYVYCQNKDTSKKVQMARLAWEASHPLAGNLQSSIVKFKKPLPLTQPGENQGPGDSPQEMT
# Ecoli rRNA inh OD600 – second read-out of Ecoli rRNA inh, no call of its own (marks repeat the call); OD600 change, %; measured here: OD600 growth;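 optical density of the mix in the first replicate; 0 = DMSO median and -100 = no signal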
# Ecoli rRNA inh RFP – recorded beside Ecoli rRNA inh, whose call it bears; RFP signal change, %; measured here: RFP humanized mutant strains;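 first replicate; 0 = DMSO median and -100 = no signal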
# An asterisk follows results filed as active; ? = inconclusive; . = no result given. Not all compounds are listed. The share of hits here may be higher or lower than overall.
SMILES,Bfl-1 A1 inh,ALR inh,Calb FLC,Ecoli rRNA inh,Ecoli rRNA inh OD600,Ecoli rRNA inh RFP,Beta cell apopt,T cruzi inh,B2AR ag,LANA-H2B inh
Cc1ccc(NC(=O)c2cc3c(=O)oc4ccccc4c3s2)nc1,-0.3,.,16.7,.,.,.,-2.3,-8.3,-15.6,.
O=C(CSc1nc2ccc([N+](=O)[O-])cc2[nH]1)c1ccc(Cl)cc1,0.6,-5.0,-15.9,.,.,.,1.8,-18.2,12.1,0.1
N#C/C(=C\c1ccncc1)C(=O)Nc1ccc(C(=O)O)cc1,-0.4,95.4*,-0.3,6.7,4.3,2.1,-0.6,3.2,-0.5,-2.5
CCN(C(=O)CN1C(=O)S/C(=C\C=C\c2ccccc2)C1=O)C1CCS(=O)(=O)C1 (centres undefined),-0.1,7.6,3.0,19.5,8.8,1.5,16.6,27.9,-9.3,-1.7
CCCCNC(=S)NC(C)(C)CO,-0.1,-4.5,13.1,18.9,6.1,0.0,-5.1,-19.8,-1.6,-3.3
O=C(N/N=C/c1ccco1)c1ccc(C(=O)N/N=C/c2ccco2)o1,-0.2,30.3,.,.,.,.,-4.7,-9.4,-17.4,-1.3
CC1=CC(C)(C)Nc2ccc(OC(=O)CN3C(=O)c4cccc5cccc(c45)C3=O)cc21,-0.7,-6.2,39.6,.,.,.,2.9,-6.1,5.1,-453.4
COc1ccccc1-c1cc(C(=O)Nc2cc(C)n(Cc3ccc(Cl)cc3)n2)no1,0.7,1.6,-9.4,.,.,.,23.1,-6.4,10.7,0.1
CC(C)[C@H](NC(=O)c1ccccc1)C(=O)OCC(=O)c1ccc2c(c1)NC(=O)CO2,-0.7,70.3,-13.6,.,.,.,-1.0,-11.6,3.8,-2.0
CC(=O)N/C(=N/c1nc(C)cc(C)n1)Nc1cccc(C)c1,?,0.6,1.6,-1.8,-3.1,0.3,4.3,-1.9,-5.3,-1.5
CC(=O)NC(CC(=O)OCC(=O)N1c2ccccc2NC(=O)C1(C)C)c1ccccc1 (centres undefined),2.0,-2.8,.,9.6,2.4,-0.4,-0.4,.,1.2,1.4
Fc1ccccc1CCNc1c2c(nc3ncnn13)CCCC2,0.7,-1.7,33.8,-28.9,-25.4,-4.5,23.3,-3.2,-1.4,1.6
COc1ccc(S(=O)(=O)NC2CCSc3ccccc32)cc1OC (centres undefined),0.7,-30.9,-5.3,0.8,-0.8,3.4,-4.1,1.6,-6.8,-3.1
CN1CCN(NC(=O)c2cc([N+](=O)[O-])cc([N+](=O)[O-])c2)CC1,0.6,10.8,3.7,.,.,.,-2.1,69.9*,-9.1,-1.6
COc1cc(C2C(C#N)=C(N)Oc3cc(C)oc(=O)c32)cc(OC)c1OC (centres undefined),0.9,19.9,-4.8,-0.4,4.7,1.3,-8.4,-6.3,-8.5,-3.9
COc1ccc(CP(=O)(c2ccccc2)c2ccccc2)cc1,-4.2,0.0,-4.3,7.9,7.8,-0.1,0.9,-1.3,6.3,-3.0
CCC(C)NC(=O)C(=O)NCc1ccccn1 (centres undefined),-0.2,-15.1,-1.1,14.1,2.9,-1.3,-2.8,-22.4,0.9,-1.1
COC(c1ccccc1)c1nnc(CCC(=O)N(C)C(C2CC2)C2CC2)o1 (centres undefined),-0.1,.,-15.1,4.9,8.0,0.1,1.2,24.3,-2.0,0.0
O=C(/C=C/c1ccc(S(=O)(=O)N2CCOCC2)cc1)NC(=S)Nc1ccc(N2CCOCC2)cc1,-1.7,5.9,-5.2,-0.3,7.4,-3.3,-11.7,-4.3,7.4,0.9
N#Cc1c(CSCC(=O)O)cc(=O)n2c1[nH]c1ccccc12,0.9,37.3,-5.6,0.5,0.9,2.7,-0.9,0.2,2.2,-4.4
C=CCNc1nc(N)c(C(=O)Nc2cc(C)on2)s1,-1.6,10.8,-11.9,.,.,.,-0.7,-11.6,-2.7,2.5
Cc1cc(N2CCOCC2)n2nc(C)c(-c3ccccc3Cl)c2n1,0.9,-0.1,4.4,-3.3,-9.5,0.1,-5.4,5.3,-5.8,-5.7
Cc1cccc(NC(=O)c2cc3cc([N+](=O)[O-])ccc3s2)n1,-0.7,-4.7,-8.5,11.7,12.6,2.1,0.8,-7.2,0.8,1.5
CCCCN1C(=O)C(O)(CC(=O)c2ccccn2)c2ccccc21 (centres undefined),1.5,-28.7,-32.8,-0.5,-0.2,1.9,-1.7,-7.4,-1.4,4.4
CN(C)c1ccc(/C(=N\O)c2ccccc2)cc1,0.0,94.5*,-20.6,.,.,.,-0.1,-7.6,-2.1,-3.5
O=C(CNC(=O)c1ccc([N+](=O)[O-])cc1)c1ccccc1,1.0,-0.1,13.4,12.4,7.9,-6.1,3.1,-4.5,-13.3,-1.7
O=C(CSc1nc2ccccc2c(=O)[nH]1)c1ccc(O)cc1O,.,.,8.3,-39.5,-56.5,-4.0,.,25.3,9.9,.
Cc1ccc(-c2nn3c(C)nnc3s2)cc1NC(=O)c1cccnc1,-0.7,-12.5,18.6,.,.,.,-3.3,-13.3,-5.4,-7.9
CCCCN1C(=O)c2ccc(C(=O)NCc3ccco3)cc2C1=O,-1.9,0.5,0.8,-0.3,-1.0,-1.3,6.6,-5.8,-4.2,-1.1
CN(C(=O)c1ccccc1Cl)c1ccccc1C(=O)NCCc1ccccc1,0.0,4.4,0.2,-1.1,-7.3,-0.4,1.9,11.3,-7.3,3.5
C#Cc1ccc(CN2CCC(Oc3cc(C(=O)NC4CC4)ccc3OC)CC2)cc1,.,.,-43.0,8.2,5.9,3.9,.,6.0,-5.9,.
CCCCCc1ccc(C(=O)CCCC)c(=S)[nH]1,-0.5,-8.1,4.0,-53.8,-72.6,-13.9,-1.7,1.1,1.2,0.0
CC(C)[C@H](NC(=O)[C@@H]1Cc2ccccc2CN1)C(=O)Nc1ccc2c(c1)OCO2,-0.8,-13.7,-5.7,-1.5,10.2,-7.0,-1.2,1.9,6.4,4.3
Clc1cccc(C2Nc3cccc4cccc(c34)N2)c1,-0.1,12.0,12.0,-12.5,7.6,-5.2,-6.1,-16.3,0.2,4.0
CCOC(=O)N1CCC(NCCNC(=O)c2ccc(Cl)cc2)CC1,0.0,4.2,8.8,.,.,.,.,36.8,-2.6,1.1
CCOC(=O)CCc1nc2ccccc2[nH]1,1.1,-1.4,14.0,8.1,12.4,-1.7,-7.3,-7.9,-4.3,-7.7
COCC(C)n1c(SCC(=O)N2CCc3ccccc3C2)nc2ccccc2c1=O (centres undefined),0.0,-1.7,-0.6,-30.8,-45.0,-16.6,7.8,11.6,3.4,0.9
NC(=NCCc1ccccc1)NS(=O)(=O)c1ccc2ccccc2c1,-0.5,-15.2,?,.,.,.,-9.8,4.9,-3.1,12.1
Cc1ccc(NC(=O)CSc2nncn2N)cc1C,1.3,-25.0,0.2,3.4,10.0,-2.0,-0.1,-1.9,-4.5,0.7
O=C(N/N=C/c1ccncc1)c1ccccc1,-3.4,-1.6,-2.0,.,.,.,-1.5,-14.4,1.9,0.8
Cc1ccccc1NC(=S)N(CCN1CCOCC1)Cc1ccccc1F,1.2,2.3,14.3,5.1,-0.5,0.1,3.1,-12.3,4.6,0.6
O=S(=O)(c1ccc(F)c(F)c1)N1CCN(c2ccccn2)CC1,0.1,1.4,-6.7,16.8,16.2,2.4,1.0,-10.4,-0.2,1.7
CC(C)c1ccc(OCC(=O)NC(C)c2ccccc2)cc1 (centres undefined),-0.1,-5.8,7.9,-0.3,-1.2,2.4,0.6,-0.9,-6.6,-1.3
CC(=O)c1cc(CN2CCC(N3CCC(C(=O)NC(C)C)CC3)CC2)cs1,1.9,13.2,-4.1,14.4,9.2,-1.1,3.2,4.7,-0.9,-5.3
CCC(=O)c1ccc(N2CCN(C(=O)c3ccccc3F)CC2)c(F)c1,0.3,-5.9,-1.9,-8.1,-14.5,-2.2,-4.0,-5.8,-0.8,0.9
CC1CN(C(=O)/C=C/c2cccc([N+](=O)[O-])c2)CC(C)O1 (centres undefined),0.0,-0.5,24.3,.,.,.,-5.1,-3.9,2.2,7.4
Cc1sc2nc(-c3ccccc3)[nH]c(=O)c2c1-c1ccccc1,-0.2,-6.7,7.7,.,.,.,12.5,-23.9,.,-3.4
Cc1cc(C)nc(NS(=O)(=O)c2ccc(NS(=O)(=O)c3ccccc3)cc2)n1,0.1,-4.4,14.5,-11.7,-16.0,-1.5,-6.5,-16.0,5.6,0.2
Cc1cc(C(N)=O)c2cc(Br)ccc2n1,-0.3,-1.7,-0.3,.,.,.,-9.9,1.0,-5.2,-1.2
Cc1c(NC(=S)NNC(=O)CCC(=O)O)c(=O)n(-c2ccccc2)n1C,0.6,22.6,-1.7,7.5,3.2,3.8,0.2,1.0,-4.8,-5.2
CCCc1nnc(NC(=O)CCC(=O)N2CCN(Cc3ccc(C)cc3C)CC2)s1,0.0,-4.7,.,-0.5,-14.6,4.2,1.9,46.0,-9.6,-4.5
COc1cc(/C=N/n2nnnc2N)ccc1OCC(N)=O,0.7,-16.8,2.2,.,.,.,-5.2,4.5,1.7,-1.3
O=C(NCc1ccco1)C1CCN(S(=O)(=O)N2CCC3(CC2)OCCO3)CC1,0.5,-4.6,4.2,.,.,.,-3.1,-4.6,-1.7,1.0
O=C(/C=C/c1cccs1)Nc1cccc(NC(=O)/C=C/c2cccs2)n1,-0.4,.,2.8,-6.9,20.3,8.9,18.6,42.8,39.6,.
Cc1cc(C(=O)CN2C(=O)NC(C)(CC(C)C)C2=O)c(C)n1-c1ccc2c(c1)OCO2 (centres undefined),-0.5,-20.1,-8.9,-34.9,-50.3,-2.3,-5.2,21.9,3.7,-2.9
Cc1cc(C)n(-c2ccc(Cl)c(C(=O)NCc3ccccc3)n2)n1,-0.1,-9.7,-24.3,5.9,6.8,-2.3,-10.3,2.1,-17.7,-4.7
CCN(Cc1ccccc1)C(=O)c1cc2c(=O)oc3ccc(C)cc3c2s1,-1.5,-0.3,9.0,-15.1,-15.1,-1.2,-2.6,16.3,2.2,-1.5
CCCCc1cc(=O)oc2cc(C)cc(OCC(=O)NCC3CCC(C(=O)O)CC3)c12 (centres undefined),-0.3,-11.6,0.3,-13.4,-18.9,-0.7,.,-14.7,0.4,0.3
CCOc1ccsc1C(=O)O,0.0,-0.9,2.1,11.6,-3.0,-2.1,.,-3.2,-0.4,-9.5
Cn1c[n+](C)cc1-c1ccc(/C(N)=N/O)cc1,-1.3,57.4,3.1,.,.,.,-8.0,-13.5,-1.9,2.2
